# Screening results from PubChem.
# HIV Env fusion: inhibitors of HIV-1 Env-driven cell-cell fusion, primary screen, HeLa-JRFL effector, CEM21 target cells, luciferase | inhibition, % at 12.3 µM | 360,000 tested, 1.1% active | AID 651610, 2012;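 active = mean replicate inhibition score of at least 50 and every replicate individually at or above 50; inconclusive = only one of the two criteria met; inactive = mean below 50 and not all replicates reaching 50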;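 also: 0% = plate neutral controls and 100% = maraviroc near 300 nM; one replicate is shown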
# Rce1 inhib: yeast Rce1p protease inhibitors, primary screen, biochemical, fluorescence, cell-free homogeneous. calls only. yeast membranes, quenched prenylated peptide cleavage fluorescence. 290,000 tested, 0.27% active. AID 2563, 2010;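 active = fall in fluorescence gain of 50% or more versus controls, with final raw signal at or below 3038400; inconclusive = same 50% fall but final raw signal above 3038400; inactive = fall in fluorescence gain under 50%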;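 also: plate controls were neutral control wells for no effect and wells lacking membranes for full effect; tested at 10 µM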
# Target sequence (Q03530 whole entry, looked up): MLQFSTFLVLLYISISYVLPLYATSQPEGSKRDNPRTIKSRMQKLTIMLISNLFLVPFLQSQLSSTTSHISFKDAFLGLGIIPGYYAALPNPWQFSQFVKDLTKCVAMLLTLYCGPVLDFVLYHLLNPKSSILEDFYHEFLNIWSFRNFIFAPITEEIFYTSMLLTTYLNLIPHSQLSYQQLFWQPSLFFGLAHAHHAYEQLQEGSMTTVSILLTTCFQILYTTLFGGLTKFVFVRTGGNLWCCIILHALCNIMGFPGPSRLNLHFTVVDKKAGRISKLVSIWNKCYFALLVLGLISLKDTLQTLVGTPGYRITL
# PABP FP inh: PABP poly(A) RNA binding inhibitors, primary screen, biochemical, fluorescence polarization, uHTS. Polyadenylate-binding protein 1 (Homo sapiens), P11940. inhibition, % at 35 µM. 290,000 tested, 1% active;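 active = 50% or more with normal probe brightness, or confirmed in later tests; inconclusive = above 50% with abnormal brightness, or retests that disagree; inactive = below 50% or failed in later tests; about a fifth of its hits are not listed in these tables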;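 also: calls also rest on retests at 20 µM and on dose response follow-up; controls were probe without protein and protein plus probe with vehicle; some compounds called inactive have numbers as strong as hits; many hits fall short of the cut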
# MT1-MMP act inh: blockers of MT1-MMP proenzyme processing, primary screen, HT1080 RFP-PRO-GFP cells, GFP/RFP fluorescence; Matrix metalloproteinase-14 (Homo sapiens), P50281; GFP/RFP ratio fluorescence, overnight; percent of plate control window, DMSO zero; GFP/RFP ratio change, % at 20 µM; 360,000 tested, 0.061% active; AID 651647, 2012;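 active = GFP/RFP ratio change of at least 30% with cell ATP level not reduced by more than half and red fluorescence within 50% of control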; also: strong numbers were not always called active
#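 Assay system: RFP-PRO-GFP reporter HT1080 cells; read-out basis: GFP/RFP fluorescence ratio; benchmarks: DMSO wells and RFP-L50D-GFP cells; doses: 20 µM single dose, 1% DMSO; schedule: overnight cell settling, then overnight compound exposure, 37 °C, 5% CO2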
# Yeast UUG start: modulators of yeast start codon fidelity, primary screen, whole organism, S. cerevisiae, single point, plate reader | S. cerevisiae UUG-firefly luciferase reporter, luminescence/redox ratio | activity score, % at 18.7 µM | 350,000 tested, 0.13% active | AID 602363, 2012;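 active = replicate mean at a twofold rise or more, about +100% in these data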;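 also: firefly luciferase made from a UUG start codon reports start codon fidelity; reporter light over untreated wells divided by growth signal over untreated wells; some hits fall short of that in this replicate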
# CSC inhib: cancer stem cell viability inhibitors, primary screen, luminescence; inhibition, % at 7.5 µM; cancer stem cell-like cells viability; 300,000 tested, 1.1% active; AID 2717, 2010;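 active = mean at 75% or more and at least half the replicates too; inconclusive = mean and replicates disagree; tested in HMLE shEcad cells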;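 also: 0% = median of negative and 100% = median of positive control wells; the first replicate is given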
# eIF4H inh: human eIF4H binding inhibitors, primary screen, translation initiation inhibitor project, biochemical, uHTS, fluorescence polarization | Eukaryotic translation initiation factor 4H (Homo sapiens), Q15056 | eIF4H fluorescence polarization binding assay | inhibition, % at 35 µM | 290,000 tested, 0.94% active | AID 2012, 2009;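 active = 50% or more with normal probe brightness, or confirmed in later tests; inconclusive = above 50% with abnormal brightness, or retests that disagree; inactive = below 50% or failed in later tests; about a fifth of its hits are not listed in these tables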;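 also: calls also rest on retests at 20 µM and on dose response follow-up; 0% = protein and probe with vehicle and 100% = probe without protein; strong numbers were not always called active; many hits fall short of the cut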
# MT1-MMP act inh RFP: second read-out of MT1-MMP act inh, no call of its own (marks repeat the call); RFP signal change, %; measured here: RFP expression control read;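 0 = vehicle wells; hits needed this value within 50% of zero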
# * = called active by the depositor; i = inactive; ? = inconclusive; / = not tested or not shown; & = joins results of further samples. This is a subset; count on the stated rates, not on these rows.
SMILES,HIV Env fusion,Rce1 inhib,PABP FP inh,MT1-MMP act inh,MT1-MMP act inh RFP,Yeast UUG start,CSC inhib,eIF4H inh
S=C(NCCc1ccccc1)N1Cc2cc(Br)ccc2-n2nncc2C1,57*,/,/,5,-3,-19,/,/
COC(=O)C1=C(c2cccc(OCc3ccccc3)c2)C[C@@H]2CC[C@H]1N2C(=O)NCc1ccccc1C(F)(F)F,20,/,/,-4,-17,-9,38,/
C[N+](C)(C)CC(=O)Nc1ccc(Cl)cc1C(=O)c1ccccc1,9,i,-10,2,6,-13,-10,-2
COc1ccccc1OCCCn1cc(C=O)c2ccccc21,-26,i,-3,4,1,-12,-11,-1
CN1CCN(C(=O)COc2ccc(Oc3ccccc3)cc2)CC1,10,i,-6,1,3,/,7,-4
COc1ccccc1N1CCN(Cc2ccc(Cl)cc2Cl)CC1,-30,i,25,7,-1,-4,8,7
CCN(CC(=O)Nc1ccc(C#N)c(Cl)c1)CC(=O)NC1CCS(=O)(=O)C1 (configuration not stated),-3,/,/,0,-1,-22,/,/
CCOP(=O)(OCC)C1(O)C(=O)Nc2ccc(Br)cc21 (configuration not stated),/,i,3,-3,8,/,-6,2
CCN(CCNc1ccc([N+](=O)[O-])c2cccnc12)S(=O)(=O)c1ccccc1,-162,i,3,-1,6,2,-1,7
CCOP(=O)(OCC)C(c1ccccc1)N(C)C=O (configuration not stated),-7,i,-9,-3,7,-10,-2,-12
O=C1CN=C(c2ccccc2Cl)c2cc(Br)ccc2N1,15,i,/,0,2,/,-5,/
c1ccc2c(CCNCc3ccc4c(c3)OCO4)c[nH]c2c1,-1,i,-2,-3,2,-14,-12,-6
O=C(c1cccc(Cl)c1)C1CCCN(Cc2ccon2)C1 (configuration not stated),-8,i,-12,0,-4,/,3,-4
COc1cccc(C2(O)CCSCC2CN(C)C)c1 (configuration not stated),/,i,7,-1,4,-9,15,24
Cc1cc(NC(=O)CCl)on1,-11,i,-7,-2,1,/,-15,0
O=C1NC(=O)C(=Cc2ccc(-c3ccc(Cl)cc3)o2)C(=O)N1,/,i,-4,-8,3,-10,47,20
CCCCn1c(O)c(C(C)=NCCN2CCOCC2)c(=O)[nH]c1=O,4,i,0,-3,-1,-3,-19,-4
CC[C@H]1CN(C)CCc2c([nH]c3ccccc23)C(=O)C[C@@H]1/C(=C\OC)C(=O)OC,/,i,/,-11,-1,0,-7,/
C[C@@H]1CN([C@H](C)CO)C(=O)CCCn2cc(nn2)CO[C@H]1CN(C)C(=O)Oc1cccc2ccccc12,-50,/,/,1,4,-4&28,/,/
CCCCSC1=NN1c1nc(N)nc(C)c1CC,-1,i,-1,-1,0,-21,-9,2

# By substructure, the compounds so far containing an aryl methoxy group
SMILES,HIV Env fusion,Rce1 inhib,PABP FP inh,MT1-MMP act inh,MT1-MMP act inh RFP,Yeast UUG start,CSC inhib,eIF4H inh
COc1ccccc1OCCCn1cc(C=O)c2ccccc21,-26,i,-3,4,1,-12,-11,-1
COc1ccccc1N1CCN(Cc2ccc(Cl)cc2Cl)CC1,-30,i,25,7,-1,-4,8,7
COc1cccc(C2(O)CCSCC2CN(C)C)c1 (configuration not stated),/,i,7,-1,4,-9,15,24

# Remaining list, next part
SMILES,HIV Env fusion,Rce1 inhib,PABP FP inh,MT1-MMP act inh,MT1-MMP act inh RFP,Yeast UUG start,CSC inhib,eIF4H inh
CN1CCN(CC(=O)Nc2ccc([N+](=O)[O-])cc2C(=O)c2ccccc2)CC1,-38,/,3,0,3,/,-3,-8
COc1ccc(S(=O)(=O)N2Cc3cnnn3-c3ccccc3C2C#N)cc1 (configuration not stated),-56,/,/,1,5,-2,/,/
COc1ccc(C(CNC(=O)Cc2ccc(Cl)c(Cl)c2)N(C)C)cc1 (configuration not stated),5,i,-17,-1,2,/,-6,6
O=c1[nH]c(=S)n(CCC2=CCCCC2)c(O)c1C=NC1CCN(Cc2ccccc2)CC1,47,i,6,5,-16,-20,30,-8
CC(=O)O[C@]1(c2ccccc2)CCN(C)[C@H]2CCCC[C@@H]21,-19,i,22,-1,1,6,-13,-4
Cc1ccccc1-n1c(/C=C/c2ccccn2)nc2ccccc2c1=O,11,i,7,-3,-10,11,15,-6
COc1ccc(C(=O)OC2CC3CCC(C2)[N+]3(C)[O-])cc1OC (configuration not stated),5,i,3,-5,1,-15,-13,-5
CC12CCCCC1N(O)CN2O (configuration not stated),/,i,0,7,3,-17,-1,-4
OC1C2CN3CN(C2)CC1(c1ccccc1)C3 (configuration not stated),-13,i,-8,6,7,-11,/,0
O=P(N1CCCCCC1)(N1CCCCCC1)N1CC1,-22,/,/,-2,1,4,/,/
O=C1NC(=O)N(c2ccccc2F)C(=O)/C1=C/c1ccc(Sc2nc3ccccc3[nH]2)o1,11,/,-4,9,86,-11,-9,49
COc1ccc(-c2cc(=NCCC(=O)O)c3cc(C)ccc3o2)cc1,-38,i,21,1,-1,4,/,2
O=c1c2ccccc2nc(CNCC2CCCO2)n1-c1ccc(F)cc1 (configuration not stated),2,i,-2,3,6,0,-1,-6
COc1nc(C)nc(NC(=O)NS(=O)(=O)c2ccccc2Cl)n1,42,i,/,2,1,-22,11,/
CSc1nnc(OC(=O)N(C)C)n1-c1ccc(Cl)cc1,9,i,-8,6,10,/,-4,3
O=C(COC(=O)Cc1ccccc1)Nc1cc(S(=O)(=O)N2CCOCC2)ccc1N1CCCC1,2,i,5,-5,-1,4,-9,6
CN1CCc2cc3c(c4c2C1Cc1ccccc1-4)OCO3 (configuration not stated),-45,i,?,-7,12,-23,18,?
N#Cc1cc(F)c(N2CCNCC2)cc1Cl,58,i,2,4,5,-17,-12,-1
C#CCN(C)[C@H](C)Cc1ccccc1,/,i,5,0,4,-18,2,2
C[C@H]1[C@H](OC(=O)CCC(=O)NCc2ccc(C(=O)O)cc2)O[C@@H]2O[C@@]3(C)CC[C@H]4[C@H](C)CC[C@@H]1C24OO3,/,i,4,-12,-11,18,25,8
N#CCCn1cc(C(=O)Nc2ccc([N+](=O)[O-])cc2)c(-c2ccccc2)n1,4,i,12,2,6,-20,3,-3
CC1CCSP(=O)(Oc2ccccc2)O1 (configuration not stated),-1,i,7,2,-1,-12,-3,6
CC(C)OS(C)(=O)=O,/,/,/,-3,5,-14,-5,/
N#CC1c2ccccc2-n2nncc2CN1C(=O)CCc1ccccc1 (configuration not stated),-17,/,/,2,2,-25,/,/
CN=C1CN(O)C(c2ccccc2)=c2cc(Cl)ccc2=N1,21,i,/,1,3,-2,-4,/
COc1ccc2c(c1)c(C(=O)CN1CCC3(CC1)OCCO3)c(C)n2Cc1ccccc1,-17,i,-1,0,5,3,-8,8
Cc1ccsc1C(=O)C1CCCN(Cc2ccn[nH]2)C1 (configuration not stated),-4,i,-12,-2,-5,/,-22,6
CCC(C)C1N=C(c2ccccc2)c2cc(Cl)ccc2N(CC(=O)NCc2ccco2)C1=O (configuration not stated),14,i,-3,2,4,-2,8,-2
CC1CN2c3ccc([N+](=O)[O-])cc3CC3(C(=O)N(C)C(=O)N(C)C3=O)C2C(C)O1 (configuration not stated),4,i,0,3,-3,/,-12,-5
CN1CCN(c2ccc([N+](=O)[O-])c(N)c2)CC1,-39,i,-3,4,3,/,-9,-9
CCN(CC)P(=O)(c1n(CC)cc[n+]1CC)N(CC)CC,2,i,-1,2,-7,/,3,-4
Cn1c(=O)n(C)c2cc([N+](=O)[O-])c(N3CCNCC3)cc21,-3,i,28,0,1,-8,-11,4
Fc1ccccc1N1CCN(Cc2ccc3c(c2)OCO3)CC1,10,/,16,2,0,-9,6,2
CC(C(=O)c1cn(C)c2ccccc12)c1ccccc1 (configuration not stated),/,i,-14,1,-1,/,-23,2
CCCCCC(=O)N[C@@H](c1ccccc1)[C@@H](O)C(=O)O[C@H]1C[C@@]2(O)[C@@H](OC(=O)c3ccccc3)C3[C@](C)(C(=O)[C@H](O)C(=C1C)C2(C)C)[C@@H](OC1OCC(O)C(O)C1O)C[C@H]1OC[C@@]31OC(C)=O (some centres not stated),/,i,28,-7,-15,-7,47,11
O=c1cccc2n1CC1CC2CN(CC(O)CN2CC3CC(C2)c2cccc(=O)n2C3)C1 (configuration not stated),-4,i,-7,-5,3,-17,-2,15
O=c1[nH]c(=O)n(-c2ccc(F)cc2)c(O)c1/C=C1\C=Nc2ccccc21,-10,i,?,-5,2,0,-3,?
COCCNC(=O)c1ccc(N2CC3CC(C2)c2cccc(=O)n2C3)c([N+](=O)[O-])c1 (configuration not stated),-6,i,0,1,4,4,14,1
COc1ccc(CCNCc2c(OC)ccc3ccccc23)cc1,16,i,19,1,0,-5,25,28
NC(=O)CSc1nnc([C@@H](N)Cc2c[nH]c3ccccc23)o1,-29,i,-11,-4,4,14,-2,-7
O=C(C(=O)N1CCOCC1)c1cn(Cc2ccccc2)c2ccccc12,21,i,1,-2,3,-17,-15,3
COC(=O)C1=C(c2cccc(C#N)c2)C[C@@H]2CC[C@H]1N2C(=O)NC(C)C,-2,/,/,1,7,10,-23,/
CCOc1ccc(Cc2c(O)[nH]c(=O)[nH]c2=O)cc1,/,i,-2,-27,-32,-18,3,5
O=C(c1ccc2c(c1)OCO2)N1CCC2(CC1)OCCO2,14,i,-2,11,7,-9,/,2
Cc1cc(=O)oc2c(C)c(OCC(=O)N3CCN(Cc4ccc5c(c4)OCO5)CC3)ccc12,-1,i,0,-1,-2,0,8,-11
CN1C(=O)C(=Cc2ccc(N3CCCCC3)o2)C(=O)N(C)C1=S,/,i,?,-114,25,/,8,?
CC(C)(O)[C@H]1O[C@H]2CC[C@@]3(C)[C@@](O)(CC[C@H]4Cc5c([nH]c6ccccc56)[C@@]43C)C2=CC1=O,/,i,-6,/,/,/,16,?
O=C(Nc1ccc(Cl)cc1C(=O)c1ccccc1)c1ccc(Br)o1,/,i,3,-6,-12,-13,-6,8
CCS(=O)(=O)NCc1nnc2n1-c1ccc(Cl)cc1C(c1ccccc1)=NC2,0,i,1,3,0,-9,-9,-10
C[C@]12CC[C@@H](O)CC1=CC(=O)C1C2CC[C@]2(C)C(=O)[C@H](O)CC12 (some centres not stated),21,/,/,0,-4,-18,/,/
CCOP(=O)(OCC)c1cccc(O)c1,-11,i,-8,0,4,-19,-17,0
CCn1cc(/C=c2/sc3n(c2=O)C2c4ccccc4OC(C)(N=3)C2C(=O)OC)c(C)n1 (configuration not stated),1,i,16,-1,1,/,-7,-12
O=C1N(c2nncs2)CCN1[N+](=O)[O-],-35,i,-6,-2,-3,-9,0,5
O=c1[nH]c2ccccc2n1C1CCN(C(c2cccs2)c2nnnn2-c2ccc3c(c2)OCCO3)CC1 (configuration not stated),34,/,/,-13,-11,-6,/,/
Cc1cc(C)c(-n2c(O)c(/C=N/N3CCCCC3c3cccnc3)c(=O)[nH]c2=O)c(C)c1 (configuration not stated),2,i,6,-19,1,-3,-11,32
CC(=O)C1C2c3ccccc3OC1(C)N=c1s/c(=C/c3cn(C)nc3C)c(=O)n12 (configuration not stated),/,i,1,-5,-2,/,-13,5
